From PubChem
VDR inh: vitamin D3 receptor (human) inhibition | P11473 | VDR-SRC2-3 peptide fluorescence polarization, 2 h | Potency, µM, without a hit: max response, negative = inhibition, hits mostly inhibitors | hit rate 0.93% among 400,000; active = well fitted inhibition curve with a large enough effect; inconclusive = small, poorly fitted or top-dose-only effect, or another doubt; inactive = no such curve, though single readings can be large or run the other way; also: series mostly up to about 120 µM
Target sequence (P11473 whole entry, looked up): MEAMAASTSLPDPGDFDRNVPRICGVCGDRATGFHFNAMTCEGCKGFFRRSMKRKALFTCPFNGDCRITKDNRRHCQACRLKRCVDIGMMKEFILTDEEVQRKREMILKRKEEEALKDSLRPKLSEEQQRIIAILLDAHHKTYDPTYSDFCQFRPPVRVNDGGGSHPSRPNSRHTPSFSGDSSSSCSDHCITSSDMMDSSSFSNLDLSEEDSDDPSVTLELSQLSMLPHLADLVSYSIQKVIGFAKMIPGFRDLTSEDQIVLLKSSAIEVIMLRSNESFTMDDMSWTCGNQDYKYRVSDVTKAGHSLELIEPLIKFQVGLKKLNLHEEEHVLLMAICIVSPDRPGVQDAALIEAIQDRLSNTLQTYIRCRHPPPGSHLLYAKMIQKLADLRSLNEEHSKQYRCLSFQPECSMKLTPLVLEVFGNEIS
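Signal is fluorescence polarization, reporting how far test compounds block the interaction of VDR with the SRC2-3 coregulator peptide after a 2 h room-temperature incubation.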
* hit, by the source's call; ? = inconclusive; & = joins results of further samples. % is scaled to controls: 0 for no effect and ±100 for the full control effect; potency is read from the fitted curve at half-maximal effect. A portion of the library; rates above refer to the full screens.

SMILES	VDR inh
COc1ccc(-c2nc(CS(=O)CC(=O)NCc3ccc4c(c3)OCO4)c(C)o2)cc1OC (stereo not drawn)	-4%
COc1ccc(CNC(=O)Cc2c(C(=O)O)[nH]c3ccccc23)cc1	-10%
COc1cc(/C=C2/C(=O)NN(c3ccc(F)cc3)C2=O)cc(Cl)c1O	?
O=C(CSCc1ccccc1)Nc1ccc2c(c1)OCO2	-27%
Cc1ccc(N2CC(NC(=O)C3CC3)CC2=O)cc1C (stereo not drawn)	3%
COc1ccc(NC(=O)CSCc2cnn(-c3ccccc3)c2-n2cccc2)cc1	14%
Cc1cc(C)cc(NC2=CC(=O)CC(c3ccco3)C2)c1 (stereo not drawn)	9%
Cc1ccc(S(=O)(=O)NC(=O)NCc2ccco2)cc1	14%
COCCCn1nnnc1SCC(=O)Nc1nc(C)c(C)s1	-5%
O=C(CSc1nnc(C2COc3ccccc3O2)o1)N1CCOCC1 (stereo not drawn)	19%
O=c1c2oc3ccccc3c2n(Cc2ccccc2Cl)c(=O)n1Cc1ccc2c(c1)OCO2	-3%
Cc1cc(C)c(-c2csc(NC(=O)C3=NN(c4ccccc4)C(=O)CC3)n2)c(C)c1	6%
Cc1ccccc1CN(c1ccc(C(=O)N/N=C/c2ccc(OCC(N)=O)cc2)cc1)S(C)(=O)=O	-2%
NS(=O)(=O)c1ccc(NC(=S)NCc2ccccc2)cc1	?
Cc1ncc(CN2CCN(C3CCCC3)C(CCO)C2)s1 (stereo not drawn)	15%
COc1cccc(OC)c1NC(=O)CN(C)S(=O)(=O)c1ccc2c(c1)OCCO2	-21%
Cc1cc(C)nc(/N=C(\N)Nc2ccc(F)c([N+](=O)[O-])c2)n1	-15%
COc1cccc(C(=O)N2CCN(CCc3ccncc3)CC2)c1	22%
Cc1cccc(C)c1NC(=O)CN(C)C(=O)c1cccc(NS(=O)(=O)c2ccccc2)c1	13%
Cc1c(CCNC=O)cc(C)c2c3c(oc12)CCCC3	-10%
CCC(C)NC(C(=O)Nc1ccc(Cl)c([N+](=O)[O-])c1)c1ccccc1 (stereo not drawn)	-14%
COc1ccc(OCc2nnc(SCC(=O)Nc3cccc(C(C)=O)c3)o2)cc1	-1%
Cc1cc(C)c(NC2=CC(=O)CC(C)(C)C2)c(C#N)c1	2%
CC(=O)N1CCc2c(sc3c2c(=O)n(Cc2ccccc2)c(=O)n3Cc2cccc(Cl)c2)C1	-13%

An excerpt of these results, in CSV form:
Molecule,VDR inh
Cc1cccc(C)c1NC(=O)CN(C)C(=O)c1cccc(NS(=O)(=O)c2ccccc2)c1,13%
CCC(C)NC(C(=O)Nc1ccc(Cl)c([N+](=O)[O-])c1)c1ccccc1 (stereo not drawn),-14%
Cc1cc(C)c(NC2=CC(=O)CC(C)(C)C2)c(C#N)c1,2%
Cc1ccccc1CN(c1ccc(C(=O)N/N=C/c2ccc(OCC(N)=O)cc2)cc1)S(C)(=O)=O,-2%

Going on with the list.
SMILES	VDR inh
NC(=O)c1ccc(SCC(=O)NC2CCCCC2)c([N+](=O)[O-])c1	-2%
CC(C)(C)CNC(=O)c1cccc2c1C(=O)c1ccc(N3CCCC3)cc1S2(=O)=O	3%
CCOc1ccc(NS(=O)(=O)c2ccc(-c3cc(C)no3)s2)cc1	2%
CCCSc1nc(=O)n2cc(C)ccc2n1	7%
COc1ccc(NC(=O)CNC(=O)c2cccs2)cc1Cl	-3%
COc1ccc(NC(=O)[C@H](C)NC(=O)C2CCN(S(=O)(=O)c3ccc(C)cc3)CC2)cc1OC	-2%
CCOC(=O)COc1nc(N(C)C)nc(N(C)C)n1	-4%
CCN(CC)CCNC(=O)c1cc(Nc2ccc(OC)c(OC)c2)nc2ccccc12	11%
C/C(=N/Nc1ccnc2cc(Cl)ccc12)c1ccc(N)cc1	-13%
COc1ccc(S(=O)(=O)N2CCCN(CC(=O)Nc3cc(NC(C)=O)ccc3OC)CC2)cc1	16%
O=C(NCCc1ccc(Cl)cc1)C12CC3CC(CC(O)(C3)C1)C2	-1%
O=C(Cn1cc(SCc2ccc(C(F)(F)F)cc2)c2ccccc21)N1CCCCCC1	3%
O=C(Nc1cccc(Cl)c1)C1CCCN(C2=NS(=O)(=O)c3ccccc32)C1 (stereo not drawn)	4%
N#Cc1cc([N+](=O)[O-])ccc1NC(=O)COC(=O)c1cnccn1	-5%
COc1ccc(C)cc1Nc1n[n+](-c2ccccc2)c(-c2cccc(Cl)c2Cl)s1	-4%
COc1ccc(-n2cc(C(=O)c3cc(Cl)ccc3O)cc(C#N)c2=O)cc1	3%
CCCn1nnnc1NC(=O)COc1ccc(CC)cc1	-6%
Cc1sc2ncn(CC(=O)N3CCN(c4ccc(F)cc4)CC3)c(=O)c2c1S(=O)(=O)N1CCC(C)CC1	-4%
COc1cccc(CN(Cc2ccco2)c2cnc(S(C)(=O)=O)nc2C(=O)Nc2cccc(Cl)c2C)c1	-8%
COc1cc(NC(=O)CN2CCN(CC(=O)Nc3ccccc3OC)CC2)cc(OC)c1	-12%
Cc1nc2nc[nH]n2c(=O)c1NC(=O)c1c(-c2ccccc2Cl)noc1C	-1%
Cc1ccc(C(=O)OCC(=O)Nc2ccccc2C(F)(F)F)cc1S(=O)(=O)N1CCCCC1	7%
O=C(Cn1cc(-c2nnnn2-c2ccc(Cl)cc2)c(=O)c2ccccc21)c1ccccc1	14%
O=c1[nH]cnc(O)c1C1C=CC=CC=C1	40µM*
O=C(CN1C(=O)COc2ccccc21)NC1CCCC1	11%
C[N+](C)(C)CCOP(=O)(O)OP(=O)([O-])OC[C@H]1O[C@@H](n2ccc(N)nc2=O)[C@H](O)[C@@H]1O	8%&-7%
CC(=O)c1c(C)nc(Nc2nc3ccccc3s2)nc1C	-10%
COc1ccc(NC(=O)C(NS(=O)(=O)c2cccs2)C(C)C)cc1Cl (stereo not drawn)	-3%
CCOc1ccccc1N1CCN(C(=S)NCc2ccco2)CC1	-23%
C/C(N)=C(/C#N)C(=O)COC(=O)CNS(=O)(=O)c1ccc2ccccc2c1	-13%
CCOC(=O)C1=C(C)NC(c2cccs2)C(=O)N1 (stereo not drawn)	7%
Cc1cc(C)cc(NC(=S)NCCN2CCOCC2)c1	-4%
COc1ccc(S(=O)(=O)Nc2ccc(Cl)cn2)cc1	7%
CCN(CC)C(=O)Cn1cc(/C=C(\C#N)C(=O)N2CCN(c3ccccc3)CC2)c2ccccc21	-7%
Cc1cccc(N2CCN(C(=O)Cn3nc(C)c4sc5ccccc5c4c3=O)CC2)c1C	11%
O=C(NCC(c1ccc2c(c1)OCO2)N1CCN(c2ccccc2)CC1)c1ccc(F)c(F)c1 (stereo not drawn)	12%
CCOC(=O)c1c(S(=O)(=O)Nc2ccccc2OCC)c(C)n(C)c1C	13%
COc1ccc(NC(=O)C2CCN(c3cnccn3)CC2)cc1Cl	-6%&4%
CCCNC(=O)NC(=O)COC(=O)c1ccc(S(=O)(=O)N(C)c2ccccc2OC)cc1	-11%
NC(=O)CC(O)c1cccc(Cl)c1 (stereo not drawn)	-10%
CCN(CC)c1ccc(NC(=O)CN2CCN(CC(=O)Nc3ccc(OC)cc3)CC2)cc1	-1%
CC(C)c1nc(N2CCCC2)c(C#N)c2c1CCCC2	8%
O=C(NCc1ccccn1)c1cc2ccccn2n1	-17%
COc1ccc(-c2nn(-c3ccccc3)cc2CNCCN2CCOC2=O)c(F)c1	5%
O=C(N/N=C/c1cccn1-c1ccccc1)c1ccncc1	1%
O=C(NCCc1csc(-c2cccnc2)n1)c1ccccc1Br	10%
COc1cc(/C=C/C(=O)NCC2CCCCC2)cc(OC)c1OC	15%
O=C(CN1CCN(c2ccccc2F)CC1)N1CCc2ccccc21	-6%
O=C(O)CCCn1cc(NC(=O)COc2ccccc2[N+](=O)[O-])cn1	10%
O=C1C2CCCN2C(c2ccccc2)N1c1ccc(Cl)cc1 (stereo not drawn)	-2%
Cc1csc(SCC(=O)N2CCCC2)n1	1%
CCOC(=O)c1c(C)[nH]c(C)c1C(=O)COC(=O)c1cccc(C)c1O	8%
N#CCCSCc1ccc(C(=O)O)o1	4%
COc1ccc(Cl)cc1S(=O)(=O)N1CCN(C)CC1	5%
Cc1csc(C(=O)NCC(=O)NNC(=O)c2cccc(Cl)c2)c1	-19%
COc1cc(/C=C/C(=O)O)cc(S(=O)(=O)Nc2cccc(S(=O)(=O)N3CCOCC3)c2)c1OC	16%
CCc1ccc(C(=O)NNC(=O)c2ccc(=O)n(C)n2)cc1	-2%
CCC(C(=O)NCCCc1ccccc1)c1ccccc1 (stereo not drawn)	-13%
O=C(COC(=O)COc1ccc(Cl)cc1)NC1CCCCC1	1%
O=C1c2cc(O)c(O)cc2S(=O)(=O)C1c1ccccc1 (stereo not drawn)	-12%

Six entries picked at random from those above, as already listed:
SMILES	VDR inh
CCC(C(=O)NCCCc1ccccc1)c1ccccc1 (stereo not drawn)	-13%
O=C1c2cc(O)c(O)cc2S(=O)(=O)C1c1ccccc1 (stereo not drawn)	-12%
CCc1ccc(C(=O)NNC(=O)c2ccc(=O)n(C)n2)cc1	-2%
Cc1csc(C(=O)NCC(=O)NNC(=O)c2cccc(Cl)c2)c1	-19%
N#CCCSCc1ccc(C(=O)O)o1	4%
O=C1C2CCCN2C(c2ccccc2)N1c1ccc(Cl)cc1 (stereo not drawn)	-2%

Carrying on:
SMILES	VDR inh
NNC(=O)c1sc(-c2ccc(Cl)cc2)cc1N	-13%
CCCOC(=S)N/C(=N\S(=O)(=O)c1ccccc1)c1ccccc1	-14%
CCOC(=O)C1=C(C)N(C)C(=S)NC1c1ccc(Cl)cc1 (stereo not drawn)	-13%
CC(=O)Nc1ccc(NC(=S)NC(=O)c2ccc([N+](=O)[O-])c(C)c2)cc1	-8%
CSCCNC(=O)c1ccc2nc(Cc3ccccc3F)oc2c1	-7%
CCOC(=O)C1=C(C)NC(=O)NC1/C(C)=C/c1ccccc1 (stereo not drawn)	-1%
CSc1cccc(NC(=S)N(CCCN2CCC(C)CC2)Cc2cccs2)c1	3%
C=CCN(CC=C)Cc1cc(=O)n2c(-c3ccccc3)csc2n1	0%
O=C(OCC(=O)N(Cc1ccccc1)C1CCS(=O)(=O)C1)c1cc2c(s1)CCCC2 (stereo not drawn)	-5%
CC(C)Oc1ccc(C(=O)NC2CCCCC2)cc1	11%
CC(=O)/C(N=Nc1cc2c(c([N+](=O)[O-])c1C)C(C)(C)CC2(C)C)=C(\C)O	-2%
O=C1Nc2cccnc2Sc2ccccc21	3%

Some of these compounds in order of the VDR inh value, rising:
Molecule	VDR inh
CCOC(=O)C1=C(C)N(C)C(=S)NC1c1ccc(Cl)cc1 (stereo not drawn)	-13%
O=C(OCC(=O)N(Cc1ccccc1)C1CCS(=O)(=O)C1)c1cc2c(s1)CCCC2 (stereo not drawn)	-5%
CC(=O)/C(N=Nc1cc2c(c([N+](=O)[O-])c1C)C(C)(C)CC2(C)C)=C(\C)O	-2%

Next section.
SMILES	VDR inh
Cn1c(N)c(C(=O)COC(=O)c2ccc(Cl)c(S(=O)(=O)N3CCCC3)c2)c(=O)n(C)c1=O	-9%
CC(C)Cc1ccc(CN2CCCC(NC(=O)c3ccoc3)C2)cc1 (stereo not drawn)	-4%
CCN(CC)C(=O)Cn1cc(C(=O)C(=O)N2CCN(c3ccc([N+](=O)[O-])cc3)CC2)c2ccccc21	-4%
O=C(O)c1cc(-c2cccc3ccccc23)nc2ccccc12	-2%
CC(C)(C)n1cnc2cc(NCc3ccccc3Cl)ccc21	-11%
CCOc1ccccc1NC(=O)CCS(=O)(=O)c1cccc2nsnc12	2%&7%
COc1ccc2c(c1)O[C@@H](c1ccc3c(c1)OCO3)[C@H](OC(=O)Nc1ccc(OC(F)F)cc1)C2=O	-4%
CC(Oc1cccnc1[N+](=O)[O-])C(=O)N1CCc2ccccc21 (stereo not drawn)	3%
CNC(=S)N/N=C/c1cn(CCOc2ccc(OC)cc2)c2ccccc12	1%
COc1ccc(CCNc2ncccc2C#N)cc1OC	0%
O=C(Nc1ccc(O)c(-c2nc3ccccc3o2)c1)c1ccc(Br)cc1	12%
COC(=O)c1sccc1S(=O)(=O)N(CC(=O)Nc1ccc(C)cc1)c1ccccc1	10%

Entries above printed as active in VDR inh.
SMILES	VDR inh
O=c1[nH]cnc(O)c1C1C=CC=CC=C1	40µM*

Next entries follow:
SMILES	VDR inh
COC(=O)CSc1nc2c(c(=O)n(C)c(=O)n2C)n1CCCc1ccccc1	6%
COc1ccc2cc([C@H](C)C(=O)O)ccc2c1	11%&-1%&-4%&-2%
CCn1c(SCC(=O)N2CCN(c3ccc(F)cc3)CC2)nnc1-c1ccncc1	13%
O=C(COc1cc(Cl)ccc1Cl)Nc1nnc(CC(=O)N2CCOCC2)s1	-10%
Cc1ccc(NC(=O)[C@H](NC(=O)[C@@H]2Cc3ccccc3CN2)c2ccccc2)c(C)c1	-4%
COC(=O)C1CCN(C(=O)NC2CCCCC2)CC1	-1%
O=C(CN1C(=O)c2ccccc2S1(=O)=O)N1CCN(c2ccccc2F)CC1	4%
CCCSc1nnc(N2C(=O)C(O)=C(C(=O)c3ccco3)C2c2ccccc2F)s1 (stereo not drawn)	?
CC(NC(=O)CN(C)S(=O)(=O)c1ccc(Br)s1)c1ccccc1 (stereo not drawn)	8%
COc1ccc(S(=O)(=O)Nc2cc(OC)c(NC(=O)c3ccco3)cc2OC)cc1	8%
COc1ccc(OC)c(S(=O)(=O)n2ccnc2C)c1	6%
COc1ccc(-c2nnc(SCc3cccc(Cl)c3)o2)cc1	2%
CCN(C(=O)CSc1nnc(-c2cccs2)n1CC)C1CCS(=O)(=O)C1 (stereo not drawn)	16%
COc1ccc(CC(NC(C)=O)C(=O)NC2CCN(C(=O)c3cccc(Cl)c3)CC2)cc1OC (stereo not drawn)	-6%
O=C(CN1C(=O)COc2ccc(S(=O)(=O)NC3CCCC3)cc21)NCc1ccc(Cl)cc1	10%
